Source: PubChem
ALR H2O2 inh: inhibitors of human ALR sulfhydryl oxidase, primary screen, biochemical, H2O2 detection, HRP-luminol luminescence, single point; FAD-linked sulfhydryl oxidase ALR (Homo sapiens), P55789; purified ALR, DTT oxidation; inhibition, % (test concentration not listed); 290,000 compounds, 3.8% hits; AID 485317, 2010;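 active = mean and each replicate at 75% or more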;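 note: stock transfer was 7.5 nL into about 7.5 µL; 0% = neutral wells and 100% = wells with inactivated enzyme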
HNF4A DNA FP: change in binding of human HNF4A to DNA, primary screen, biochemical, fluorescence polarization, FITC-DNA | 1 h | Hepatocyte nuclear factor 4-alpha (Homo sapiens), P41235 | activity change, % at 10 µM | 360,000 compounds, 0.3% hits; in the data active = activity change above about 30%, passing the limit was not always enough;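 note: controls were the assay level and a saturating level of protein; the project sought stronger binding though the title names inhibitors; some compounds called inactive have numbers as strong as hits; positive values seem to mean higher polarization but the record does not say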
Target sequence (P41235 whole entry, looked up): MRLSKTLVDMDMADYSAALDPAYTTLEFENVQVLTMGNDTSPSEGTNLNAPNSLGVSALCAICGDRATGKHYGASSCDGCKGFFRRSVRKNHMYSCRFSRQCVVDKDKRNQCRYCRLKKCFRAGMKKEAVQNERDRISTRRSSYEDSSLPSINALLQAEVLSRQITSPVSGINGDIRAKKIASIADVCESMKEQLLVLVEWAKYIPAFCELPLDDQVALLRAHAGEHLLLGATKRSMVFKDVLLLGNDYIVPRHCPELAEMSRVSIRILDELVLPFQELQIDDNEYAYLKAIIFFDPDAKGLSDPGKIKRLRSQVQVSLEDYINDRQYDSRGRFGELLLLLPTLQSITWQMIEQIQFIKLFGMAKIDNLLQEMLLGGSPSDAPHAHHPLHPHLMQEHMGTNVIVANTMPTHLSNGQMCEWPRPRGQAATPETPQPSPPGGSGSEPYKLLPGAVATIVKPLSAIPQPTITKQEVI
Beta2AR agonist: beta2AR agonists driving receptor internalization, primary screen, cell-based, FAP fluorogen, flow cytometry; response, % (test concentration not listed); Am2.2-beta2AR cells; reference of the scale not given here; 340,000 compounds, 0.43% hits; AID 504454, 2011; Beta-2 adrenergic receptor (Homo sapiens), P07550;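 active = response above a set limit, near 3 SD of response in nonfluorescent compounds, cut at about 42% in these data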;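 note: stock transfer was 100 nL into about 11 µL; a reference agonist was the positive control; negative values mostly stem from fluorescent compounds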
Target sequence (P07550 whole entry, looked up): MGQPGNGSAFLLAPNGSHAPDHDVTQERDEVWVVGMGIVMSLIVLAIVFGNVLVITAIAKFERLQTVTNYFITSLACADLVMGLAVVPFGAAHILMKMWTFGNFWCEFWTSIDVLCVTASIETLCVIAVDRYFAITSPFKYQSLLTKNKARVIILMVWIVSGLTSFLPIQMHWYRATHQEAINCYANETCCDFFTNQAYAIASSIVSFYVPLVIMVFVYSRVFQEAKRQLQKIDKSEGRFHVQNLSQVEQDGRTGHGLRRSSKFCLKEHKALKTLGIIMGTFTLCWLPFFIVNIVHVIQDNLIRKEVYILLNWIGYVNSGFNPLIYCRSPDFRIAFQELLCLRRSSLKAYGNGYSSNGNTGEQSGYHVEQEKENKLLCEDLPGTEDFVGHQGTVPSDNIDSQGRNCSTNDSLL
FGF22 binding: binders of human FGF22 protein, primary screen, FGF22 synaptogenesis inhibitor project, biophysical, thermal shift, single point; recombinant FGF22 thermal shift, SYPRO orange fluorescence; percent of sucrose octasulfate shift, DMSO zero; calls only at 9.99 µM; 340,000 compounds, 1.5% hits;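 active = melting point raised past a set limit in the mean and every replicate; three in four hits are not shown here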
Target sequence (Q9HCT0 whole entry, looked up): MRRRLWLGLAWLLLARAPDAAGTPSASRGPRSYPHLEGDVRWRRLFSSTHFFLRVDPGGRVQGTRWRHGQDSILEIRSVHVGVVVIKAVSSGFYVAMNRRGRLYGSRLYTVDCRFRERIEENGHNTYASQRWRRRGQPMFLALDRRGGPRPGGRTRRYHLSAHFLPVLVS
LANA-H2B inh: blockers of LANA interaction with H2A/H2B – biochemical, FP readout, HTS, primary screen; Protein LANA1 (Human herpesvirus 8 type P (isolate GK18)), Q9QR71; cell-free LANA-H2A/H2B peptide, fluorescence polarization; inhibition, % (concentration not given with the values); 320,000 compounds, 0.6% hits; AID 2629, 2010; in the data active = inhibition mostly above about 10%, no sharp cut-off; inactive = mostly below about 6.7%;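 note: stock transfer was 7.5 nL into about 10 µL; 0% = median of vehicle wells and 100% = median of positive control wells; one replicate is shown; the record names a cut of 25% in any replicate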
Ecoli growth: E. coli growth inhibition, primary screen, OD600 | 330,000 compounds, 0.21% hits | Escherichia coli growth, 23 h; hits give low values | AID 1053175, 2014 | OD600 absorbance (concentration not given with the values);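 active = OD600 absorbance below the run mean of sample wells minus 3.6 SD, in any replicate, cut at about 0.56 in these data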;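 note: stock transfer was 300 nL into about 60 µL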
UCH37 DUB inh: inhibitors of human UCH37 deubiquitinase, primary screen, biochemical, Ub-AMC cleavage, fluorescence | AID 588478, 2011 | 330,000 compounds, 0.33% hits | inhibition, % (concentration not given with the values) | purified proteasome/UCH37 | Ubiquitin carboxyl-terminal hydrolase isozyme L5 (Homo sapiens), Q9Y5K5;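 active = mean of two replicates above 20%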;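 note: 0% = compound-free wells with enzyme and 100% = wells lacking proteasome; stock transfer was 100 nL into about 20 µL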
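Material: Human UCH37 enzyme supplied as purified proteasome complex | Schedule: 30 min compound-proteasome preincubation then 25 min substrate reaction, room temperature | Detection: AMC fluorescence from Ub-AMC cleavage, excitation 355 nm, emission 460 nm | Benchmarks: Wells without proteasome as full block, compound-free enzyme plus substrate as uninhibited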
The depositor's hits bear a star; i = inactive; . = no result given. This is a subset; rates above refer to the full screens.

SMILES	ALR H2O2 inh	HNF4A DNA FP	Beta2AR agonist	FGF22 binding	LANA-H2B inh	Ecoli growth	UCH37 DUB inh
CCOc1ccc(S(=O)(=O)Nc2ccc(S(=O)(=O)N3CCOCC3)cc2)cc1	-1	2.1	1	.	-3.6	0.74	4.5
C=CCn1c(C)cc(C(=O)Cn2c(C(C)O)nc3ccccc32)c1C (stereo unspecified)	4	0.9	-6	i	4.6	0.69	3.3
O=C(NC1CCCCCCC1)c1c(O)c2ccccc2[nH]c1=O	-1	-1.7	-3	.	-6.0	0.68	1.6
COc1ccc(N2CCN(C(=O)CNC(=O)Cn3c(C)cc4ccccc4c3=O)CC2)cc1	11	-3.1	-1	.	-1.0	0.72	-3.1
O=C(N/N=C/c1ccc2c(c1)OCO2)C(=O)Nc1cccc(Cl)c1	.	1.7	14	i	-14	.	.
COCC(C)n1c(C)cc(C(=O)CSc2nnc(-c3ccco3)o2)c1C (stereo unspecified)	-1	2.1	-5	i	0.0	0.71	1.5
COc1cc(NC(=O)C2CC(=O)N(CCc3ccccc3)C2)cc(OC)c1 (stereo unspecified)	5	2.3	3	i	-1.8	0.62	1.2
FC(F)(F)c1cc(-c2cccs2)nc2nc(N3CCOCC3)sc12	-7	0.9	-19	i	4.8	0.71	-87
O=C(NNc1nc(-c2ccccc2)c2cc(Br)ccc2n1)c1ccc(S(=O)(=O)N2CCOCC2)cc1	0	-3.0	-2	i	-6.3	0.68	1.9
CCOC(=O)c1cc(C)[nH]c(=S)c1C#N	.	0.4	-12	.	-6.8	0.72	3.1
O=C(O)c1ccccc1C(=O)c1ccc2c(c1)CCC2	0	-1.6	-4	i	0.7	0.73	1.7
O=C(CC(=O)N/N=C/c1c(F)cccc1Cl)NCCc1ccccc1	-34	-1.7	3	i	9.3	.	.
CCOc1ccc(Oc2ccccc2NS(=O)(=O)c2ccc(CCC(=O)O)cc2)cc1	1	2.2	16	i	i	0.63	5.6
Cc1cccc(/C=N/Nc2nncc3ccccc23)c1	97*	-1.8	1	.	0.9	.	.
COc1ccccc1C(=O)NCCC(=O)Nc1ccc(S(=O)(=O)N2CC(C)CC(C)C2)cc1 (stereo unspecified)	-6	3.3	14	i	.	0.64	5.3
CCCN(Cc1nnc(-c2cccs2)o1)C(=O)CN1C(=O)NC2(CCCCC2)C1=O	.	1.2	-3	.	.	0.69	0.7
Clc1ccc2nc(-c3ccccc3)cn2c1	2	-1.4	-1	i	2.6	0.68	-6.3
CN(CC(=O)Nc1c(Cl)cccc1Cl)C(=O)c1ccccc1SCC(=O)N1CCCC1	4	3.5	-4	i	-1.5	.	.
Cc1[nH]n(-c2ccccc2)c(=O)c1C=NCC1CCCO1 (stereo unspecified)	-1	0.3	0	i	2.1	0.65	3.9
CN(C)c1ccc(/C=C(\NC(=O)c2ccccc2)C(=O)NCc2cccnc2)cc1	.	2.8	22	i	-3.9	0.67	13
O=C(O)CC/C(=N/NC(=O)c1cn(-c2ccccc2)nc1-c1ccccc1)C(=O)O	3	-1.7	-14	i	2.7	.	.
Fc1ccc(NC(=S)N2CCOCC2)c(F)c1	-11	-0.2	0	i	3.3	0.71	0.8
CC1CCN(CCCNC(=O)c2ccc(CSCc3cccc(Cl)c3)o2)CC1	99*	-5.5	9	.	-8.4	0.66	0.6
CCCn1c(=O)[nH]c(=O)c2c(C(F)(F)F)cc(-c3ccc(C)cc3)nc21	-4	3.8	-1	i	1.1	0.73	-119
CN(C)c1cccc(C(=O)NNC(=S)NC2CC3CCC2C3)c1 (stereo unspecified)	85*	3.9	0	.	7.1	0.72	-0.5
CC1(CCc2ccccc2)NC(=O)N(CC(=O)Nc2ccccc2C#N)C1=O (stereo unspecified)	26	8.0	3	i	8.6	0.69	-0.3
O=C(NCc1ccco1)[C@@H]1CSC2c3ccccc3C(=O)N21 (stereo partly specified)	5	1.2	-12	.	1.2	0.74	4.7
Cc1c(-n2c(O)c(C3=c4ccccc4=NC3=O)sc2=O)c(=O)n(-c2ccccc2)n1C	-2	-0.2	7	i	1.4	0.71	2.6
CC(C)c1ccc(CNC(=O)CSCC(=O)Nc2ccc3ccccc3c2)cc1	-6	-1.8	-9	.	-2.0	0.76	3.3
COc1ccc(C2=CSC(/N=C/c3ccc(F)cc3)=NN2)cc1	51	4.5	-15	i	-7.3	.	.
CCCc1nnc(NC(=O)CCC(=O)N2CCN(Cc3ccc(F)cc3)CC2)s1	-1	0.8	-4	i	1.1	0.66	3.3
COc1ccc(C(=O)Nc2ccc(C(=O)c3ccccc3)cc2)cc1	7	1.4	-5	i	-1.5	0.66	5.6
Cc1cc(NC(=O)CSc2nc3c(c(-c4cccnc4)c2C#N)CCC3)no1	-3	-4.5	20	.	-1.5	0.7	-21
Cc1nn(CC(=O)NCCCc2ccccc2)c(C)c1[N+](=O)[O-]	5	-2.7	-6	i	-0.4	0.71	3.4
CC1Cc2ccccc2N1C(=O)CCNS(=O)(=O)c1cccc2nsnc12 (stereo unspecified)	.	-2.2	-2	.	0.6	0.78	5.0
COC(=O)c1ccccc1NC(=O)c1cc2ncc(Br)cn2n1	-4	-13	-7	.	3.2	0.72	-30
Cc1ccc(S(=O)(=O)Nc2cc(C)c(O)c(Sc3n[nH]c(C)n3)c2)cc1	51	1.3	1	i	1.0	0.65	1.4
CC(C)c1ccc(C(C)NC(=S)NC2CCCCC2)cc1 (stereo unspecified)	-9	-0.2	-3	i	-6.0	0.7	3.2
CCCN(CCC)CCCNC(=O)CN1C(=O)CSc2ccc(S(=O)(=O)N3CCOCC3)cc21	-2	0.8	-3	i	-2.0	0.71	3.6
CC(NC(=O)/C(C#N)=C/c1ccc([N+](=O)[O-])o1)c1ccccc1 (stereo unspecified)	.	13	18	i	10	.	.
Cc1cccc(C(=O)NNC(=O)C(=O)NC(C)(C)C)c1	69	4.4	6	.	5.3	0.75	4.3
O=C(NCc1ccco1)/C(=C\c1ccc(F)cc1)NC(=O)c1ccco1	4	3.9	-6	i	-1.1	0.64	3.9
CC(=O)Nc1ccc(C(=O)N/N=C/c2ccncc2)cc1	-11	2.9	7	i	-4.0	.	.
Cc1ccc(-c2csc(NC(=O)c3ccc(-c4ccccc4)cc3)n2)o1	8	-3.6	29	.	-1.8	0.74	-33
CC(C)CC(=O)Nc1ccccc1-c1nnn(CC(=O)N2CCOCC2)n1	-8	3.9	0	.	1.2	0.68	-1.4
CC(=O)N/N=C/C1=CCC2CC1C2(C)C (stereo unspecified)	-12	3.3	0	i	-3.8	.	.
Cc1cc(C)c2c(C)c(C(=O)Nc3c(C)n(C)n(-c4ccccc4)c3=O)oc2c1	9	-2.3	0	i	0.8	0.7	5.0
Cc1ccc(NC(=O)CN(C)C(=O)C2COc3ccccc3O2)cc1 (stereo unspecified)	2	4.8	0	i	-0.3	0.65	0.2
COc1ccccc1C1C(C(N)=O)=C(C)Nc2nc(-c3ccc(Cl)cc3)nn21 (stereo unspecified)	.	5.8	1	i	1.3	0.65	-2.1
COc1ccc(-c2c3c(cc(C)[n+]2[O-])oc2ccc(OC)cc23)cc1	45	12	-17	.	-1.1	0.71	-38

A section of the results above, as a working copy:
SMILES	ALR H2O2 inh	HNF4A DNA FP	Beta2AR agonist	FGF22 binding	LANA-H2B inh	Ecoli growth	UCH37 DUB inh
CC(NC(=O)/C(C#N)=C/c1ccc([N+](=O)[O-])o1)c1ccccc1 (stereo unspecified)	.	13	18	i	10	.	.
Cc1cccc(C(=O)NNC(=O)C(=O)NC(C)(C)C)c1	69	4.4	6	.	5.3	0.75	4.3
O=C(NCc1ccco1)/C(=C\c1ccc(F)cc1)NC(=O)c1ccco1	4	3.9	-6	i	-1.1	0.64	3.9
CC(=O)Nc1ccc(C(=O)N/N=C/c2ccncc2)cc1	-11	2.9	7	i	-4.0	.	.
Cc1ccc(-c2csc(NC(=O)c3ccc(-c4ccccc4)cc3)n2)o1	8	-3.6	29	.	-1.8	0.74	-33
CC(C)CC(=O)Nc1ccccc1-c1nnn(CC(=O)N2CCOCC2)n1	-8	3.9	0	.	1.2	0.68	-1.4
CC(=O)N/N=C/C1=CCC2CC1C2(C)C (stereo unspecified)	-12	3.3	0	i	-3.8	.	.
Cc1cc(C)c2c(C)c(C(=O)Nc3c(C)n(C)n(-c4ccccc4)c3=O)oc2c1	9	-2.3	0	i	0.8	0.7	5.0
Cc1ccc(NC(=O)CN(C)C(=O)C2COc3ccccc3O2)cc1 (stereo unspecified)	2	4.8	0	i	-0.3	0.65	0.2
COc1ccccc1C1C(C(N)=O)=C(C)Nc2nc(-c3ccc(Cl)cc3)nn21 (stereo unspecified)	.	5.8	1	i	1.3	0.65	-2.1
COc1ccc(-c2c3c(cc(C)[n+]2[O-])oc2ccc(OC)cc23)cc1	45	12	-17	.	-1.1	0.71	-38

(listing goes on)
SMILES	ALR H2O2 inh	HNF4A DNA FP	Beta2AR agonist	FGF22 binding	LANA-H2B inh	Ecoli growth	UCH37 DUB inh
COc1cccc(-c2c(-c3cc(OC)cc(OC)c3)n(C)c3ccc(-c4cnc(OC)nc4)cc23)c1	-16	0.3	-3	.	1.3	0.68	-5.0
Cc1cccc(NC(=O)c2cccc(N3C(=O)CCC3=O)c2)c1	-4	0.7	-1	i	3.9	0.7	3.7
CC1CCN(CCCCOc2ccccc2[N+](=O)[O-])CC1	-3	3.2	9	.	-7.3	0.69	4.7
COc1ccc(-c2nn(-c3ccccc3)cc2CN2CCCO2)c(F)c1	84*	-1.3	-21	i	1.3	0.71	0.1
CC(C)(C)C(=O)NC(=S)Nc1ccc(Cc2ccncc2)cc1	10	1.0	-2	i	2.9	0.63	2.8
O=C(Nc1ccc(Cl)cc1)Nc1nnc(CSCc2ccccc2)s1	1	0.8	1	.	0.9	0.68	1.5
CCCOC(=O)c1c(NC(=O)c2cnn3c2NC(c2ccccc2)CC3C(F)(F)F)sc2c1CCCC2 (stereo unspecified)	2	-1.9	0	i	-6.2	0.71	-176
O=C(NCCCN1CCOCC1)c1ccc(Cl)cc1Cl	-5	0.1	-10	i	4.1	0.67	-1.0
CCOC(=O)C1CCCN(C(=O)Cn2nc(C)c3c(C)n(-c4ccccc4)nc3c2=O)C1 (stereo unspecified)	-6	1.6	-1	i	-8.6	0.65	0.8
CCCCCCN(C(=O)CCl)c1ccccc1	-3	-1.4	14	i	2.6	0.61	0.8
CCc1ccccc1-n1nnnc1SCC(=O)Nc1cc(C)on1	1	2.5	-24	i	1.7	0.67	1.5
Cc1ccc(S(=O)(=O)N2CCN(C(=O)COC(=O)/C=C/c3cccc(Cl)c3)CC2)c(C)c1	.	-0.6	-2	i	.	0.73	3.8
COc1ccc(-n2c(C)nnc2SCC(=O)Nc2ccccc2F)cc1	-5	1.0	9	i	9.5	0.64	3.4
Cn1c(CNc2ccccc2)nc2ccccc21	53	-1.6	-10	.	1.7	0.7	-5.4
COc1ccc(CCN(C)CCN2C(=O)c3ccccc3C2=O)cc1OC	-9	-2.0	10	.	-9.8	0.72	2.0
